TRPV1 potentiator: enhances activation of the human vanilloid receptor TRPV1; 320,000 tested, 0.02% active; Q8NER1; TRPV1-expressing cells, Fluo-8 calcium influx, capsaicin EC20 potentiation; host cell line not named in the record; control for the full effect not named in the record; potentiation, % at 8.33 µM; active means potentiation above 80%; inconclusive means 30% to 80%; inactive means below 30%; also: 0% is about no effect
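Cells expressing TRPV1 were dye-loaded with Fluo-8 and read kinetically: 10 s baseline, 3 min after compound (agonist portion), then 2 min after EC20 capsaicin (allosteric enhancer portion). Calcium-bound dye fluorescence at 480/520 nm.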
TRPML1 blocker: human mucolipin-1 channel inhibition. AID 624415. activity change, negative = inhibition, % (no concentration beside the values). TRPML1-inducible cells, Ca2+ dye fluorescence, FDSS; active compounds read low; inhibition of EC80 agonist-evoked calcium signal. 390,000 tested, 0.02% active; in the data active means activity change below about -50%; inconclusive means about -30% to -50%; inactive means above about -30%;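 also: stimulus is agonist 54-4 at its EC80 concentration; % is scaled to controls: 0 for no effect and ±100 for the full control effect; compound concentration not given in the record; the text of the record puts the active cut at -80%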
Target sequence (Q9GZU1 whole entry, looked up): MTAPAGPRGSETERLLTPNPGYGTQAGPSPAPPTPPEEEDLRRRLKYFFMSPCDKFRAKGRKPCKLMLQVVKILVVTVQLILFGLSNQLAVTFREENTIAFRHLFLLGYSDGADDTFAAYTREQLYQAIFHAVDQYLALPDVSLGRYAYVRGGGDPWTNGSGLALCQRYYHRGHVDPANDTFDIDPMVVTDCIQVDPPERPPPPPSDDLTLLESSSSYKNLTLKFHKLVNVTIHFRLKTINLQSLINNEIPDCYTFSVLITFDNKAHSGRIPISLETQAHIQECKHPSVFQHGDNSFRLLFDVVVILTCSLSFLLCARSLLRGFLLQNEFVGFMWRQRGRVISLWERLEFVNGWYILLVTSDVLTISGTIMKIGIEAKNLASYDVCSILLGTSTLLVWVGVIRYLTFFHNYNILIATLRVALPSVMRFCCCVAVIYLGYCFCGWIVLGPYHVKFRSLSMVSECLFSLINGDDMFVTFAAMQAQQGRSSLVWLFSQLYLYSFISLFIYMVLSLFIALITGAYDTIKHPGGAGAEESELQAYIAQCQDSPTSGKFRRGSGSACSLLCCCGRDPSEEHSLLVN
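Calcium fluorescence in TRPML1-DL cells induced overnight with Tet: a 110 s read after compound pin addition, then a 110 s antagonist read after challenge with 54-4 at 4 uM final (EC80).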
Sfp inh: inhibitors of Bacillus subtilis Sfp phosphopantetheinyl transferase. Potency, µM, inactives show max response, negative = inhibition, hits mostly inhibitors. Biochemical Sfp PPTase activity, qHTS. 310,000 tested, 3.5% active. Q9F4F7; active = well fitted inhibition curve with a large enough effect; inconclusive = small, poorly fitted or top-dose-only effect, or another doubt; inactive = no such curve, though single readings can be large or run the other way;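 also: the enzyme is Sfp with the accession as filed and its product quenches rhodamine fluorescence; potency is read from the fitted curve at half-maximal effect; 0% = enzyme reaction without inhibitor and -100% = no enzyme wells; top concentration of the series not given in the record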
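Reaction rates are the 30-min fluorescence difference (ex 525, em 598 nm) in wells containing 15 nM Sfp, 5 uM rhodamine-CoA and 12.5 uM BHQ-2-YbbR at pH 7.6 with 10 mM MgCl2.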
Menin-MLL FL inh: menin-MLL binding inhibition, fluorescein peptide; Fluorescence polarization, fluorescein-MLL peptide displacement from menin; FP activity change, % at 61.4 µM; 290,000 tested, under 10 active; AID 1766; inconclusive = falling polarisation curve, or a change in total fluorescence; inactive = total fluorescence flat and polarisation flat or rising; no compound was filed as active; the % refers to the polarisation; negative = inhibition;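 also: % of control where 0% means no effect; inhibitors lower the polarisation; unlabelled MLL peptide was the positive control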
PINK1 modulator: changes PINK1 expression; PINK1 immunofluorescence, high-content cytometry, 24 h; AID 624263; Potency, µM (doses to about 76.6 µM), for inactives: at the highest dose activation (PINK1 increase), most hits filed as activators; 410,000 tested, 0.2% active; active = well fitted activation curve with a large enough effect; inconclusive = small, poorly fitted or top-dose-only effect; inactive = flat fitted curve, though single readings scatter; cell line not stated here;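 also: potency is read from the fitted curve at half-maximal effect; % of control where 0% means no effect; nearly all actives have a fitted effect of over 65% in size; a mitochondrial uncoupler was the plate control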
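Measures PINK1 amount and localization on or inside mitochondria by immunofluorescence. Stable cells get compounds at 5 concentrations for 24 hours before fixation and staining; CCCP controls included.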
ClpP mod: qHTS Assay for Activators of ClpP; ATP-dependent Clp protease proteolytic subunit (Bacillus subtilis (strain 168)), P80244; purified B. subtilis ClpP, FRET peptide cleavage, 20 min; Potency, µM (titrated, usually from 57.5 µM), for inactives: at the top dose activity change, negative = active; 340,000 tested, 1.9% active; active = well fitted falling curve with a large enough effect; inconclusive = small, poorly fitted or top-dose-only effect; inactive = no such curve, though single readings can be large or run the other way; also: potency is read from the fitted curve at half-maximal effect; the source files actives as falling curves though it sought activators and does not explain the sign; nearly all actives have a fitted effect of over 65% in size; many hits overshoot -100%
Target sequence (P80244 whole entry, looked up): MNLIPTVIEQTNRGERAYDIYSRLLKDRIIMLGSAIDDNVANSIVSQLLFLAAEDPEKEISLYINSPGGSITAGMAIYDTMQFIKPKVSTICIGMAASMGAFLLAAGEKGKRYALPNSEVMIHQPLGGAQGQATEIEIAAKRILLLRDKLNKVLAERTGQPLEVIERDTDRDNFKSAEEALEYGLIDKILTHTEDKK
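Buffer: 100 mM Tris/HCl pH8, 100 mM KCl, 0.05% low protease BSA, 2.5% glycerol, 0.01% Tween-20. ClpP 10 microg/mL final; 20 min RT; delta FRET normalized to ADEP and DMSO controls.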
TRPML1 ag: human mucolipin-1 channel agonism. Q9GZU1. TRPML1-expressing cells, Ca2+ dye fluorescence, FDSS; host cell line not named in the record; reference of the full effect not given here. activation, % (no concentration beside the values). 410,000 tested, 0.12% active. AID 624414; in the data active = activation above about 50%; inconclusive = about 30% to 50%; inactive = below about 30%; also: 0% is about no effect; the text of the record puts the active cut at 80%
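Kinetic FDSS Ca2+ read in Tet-induced TRPML1-DL cells (ABD Ca8 dye plus quencher, 45-90 min RT loading): baseline, then compound, then 110 s agonist window; EC80 agonist 54-4 at 4uM final added afterwards for a 110 s antagonist window.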
* marks the source's active call; other numbers are inactive results; u = inconclusive; x = not tested or not shown; & = joins results of further samples; [ ] = remark or other dose.

SMILES | TRPV1 potentiator | TRPML1 blocker | Sfp inh | Menin-MLL FL inh | PINK1 modulator | ClpP mod | TRPML1 ag
O=C(NC(Cc1c[nH]c2ccccc12)C(=O)O)/C(=C\c1ccccc1)NC(=O)c1ccccc1 (configuration not stated) | 0 | -11 | 26% | 1.1 | 3.2% | x | -0.5
O=C(CCN1C(=O)S/C(=C\c2ccccc2)C1=O)N1CCOCC1 | x | -12 | x | x | -0.3% | -0.8% | 0.3
Fc1ccc(Nc2nc(NCc3ccco3)nc3nccnc23)cc1 | x | x | x | x | 4.8% | -0.5% | -0.3
CC1=C([N+](=O)[O-])C(c2ccc3c(c2)OCO3)N(C)C(=O)N1C (configuration not stated) | -5 | 19 | 6% | 0.0 | 0.6% | x | 0.1
c1ccc(-c2cn3ccccc3n2)cc1 | x | -4 | x | x | 1.9% | x | -0.3
O=C(Cn1c(=O)n(CCC(=O)N2CCc3ccccc3C2)c(=O)c2ccccc21)NCC1CCCO1 (configuration not stated) | 0 | 5 | 10% | 0.7 | -1.0% | -18% | -1.5
O=C(CN1CCN(c2ccccn2)CC1)N1CCc2ccccc21 | 3 | 14 | 4% | -1.1 | 1.0% | -2.9% | 2.0
Cc1ccnc(NS(=O)(=O)c2ccc(NC(=O)Cc3ccc(Cl)cc3)cc2)n1 | 19 | 6 | 7% | -0.9 | 0.1% | -0.8% | 0.8
Cc1ccc2[nH]c(CCN(C)C)c(CN3CCOCC3)c2c1 | 2 | -5 | x | x | 2.0% | -2.5% | 2.2
O=C(c1ccc2nccnc2c1)N1CCN(c2cccc(C(F)(F)F)c2)CC1 | 7 | -3 | x | x | 0.1% | 0.4% | -0.5
COc1ccc(-c2c(-c3ccc4c(c3)OCO4)noc2C)cn1 | 19 | 11 | 1% | 0.0 | 5.4% | -4.0%&-10% | 2.8&-0.7
CC(=O)c1ccccc1NC(=O)CSc1nc2ccccc2c(=O)n1CCCN1CCOCC1 | x | -10 | x | x | 0.5% | -0.4% | 0.5
COc1ccc(OCC(=O)Nc2ccccc2Cl)cc1 | -10 | 29 | 19% | -0.9 | -0.4% | x | -0.4
CS(=O)(=O)N1CCC(C(=O)Nc2ccccc2Sc2ccccc2)CC1 | 17 | 4 | 8% | 0.7 | -0.6% | 0.5% | -0.4
Cc1cc(NC(=O)c2ccc(NC(=O)CC(C)C)cc2)no1 | -1 | 18 | 13% | 2.1 | x | 1.3% | -0.1
Cc1noc(C)c1S(=O)(=O)N(CC(=O)NCCc1ccc(Cl)cc1)c1ccc(C(C)C)cc1 | x | 40 | x | x | 1.9% | 1.0% | -0.7
O=C(Nc1cccnc1)c1cccc(S(=O)(=O)N2CCCC2)c1 | 15 | 2 | -12% | 0.9 | 3.1% | x | -0.1
CNC(=O)c1c(O)c2cccc3c2n(c1=O)CC3 | x | 37 | x | x | -1.5% | -6.6% | -0.2
CCc1ccc(OCC(=O)Nc2ccc(CN3CCCCC3)cc2)cc1 | -5 | 44 | -2% | 0.0 | 0.8% | x | 1.5
Cc1ccc(C2(C)NC(=O)N(CC(=O)Nc3ccc(-c4nc5ccc(C)cc5s4)cc3)C2=O)cc1 (configuration not stated) | 1 | x | 8% | 4.4 | 10% | 3.7% | x
COc1ccc(NC(=O)CN2C(=O)CSc3ccc(S(=O)(=O)N4CCC(C)CC4)cc32)cc1 | 1 | -18 | 15% | 0.7 | 0.5% | 0.2% | 7.8
CC1CN(CCn2cnc3c(N)ncnc32)CC(C)O1 (configuration not stated) | -14 | -5 | 19% | 1.8 | -1.4% | -1.3% | 1.3
Cn1c(=O)n(Cc2ccco2)c(=N)c2c3c(sc21)CCC3 | -5 | -23 | -11% | 1.2 | 1.9%[38.3 µM] | -0.5% | 1.2
COc1cccc(/C=C/C(=O)OCC(=O)Nc2cccc(S(=O)(=O)N3CCCCC3)c2)c1OC | 19 | -9 | 1% | 2.2 | 6.6% | 28µM* | -0.2
COc1ccc(-n2c(CC3C(=O)N(C)c4ccc(C)cc43)nc3ccccc3c2=O)cc1 (configuration not stated) | x | -10 | x | x | 5.2% | 0.1% | 2.7
NC(=O)C1(N2CCCCC2)CCN(c2nc(-c3ccc(Br)cc3)cs2)CC1 | 8 | 10 | 7% | -1.0 | 20%[38.3 µM] | 0.1% | 0.3
CCOC(=O)c1c(-c2ccc(OC)cc2)csc1/N=C/C1C(=O)CCCC1=O | -14 | 2 | -35% | u | u | x | 9.4
COc1ccc(CCNC(=O)CSc2nc3[nH]ncc3c(=O)n2-c2ccccc2Br)cc1OC | -15 | -13 | 12% | 1.9 | 1.4% | -0.1% | 1.4
O=C(CSc1nnc(CNc2cccc(Cl)c2)o1)OC1CCCCC1 | u | 13 | 5% | -2.1 | -0.3% | -2.6% | 3.0
CCN(CC(=O)Nc1ccccc1OC)C(=O)Cn1cnc2ccccc2c1=O | 13 | 56 | 6% | 2.4 | -1.1% | 0.7% | 1.2
CN(C)S(=O)(=O)c1ccc(C(=O)Nc2nnc(SCC(=O)NCC3CCCO3)s2)cc1 (configuration not stated) | -21 | -1 | 9% | x | 1.2% | -2.9% | -0.2
N#Cc1cc2c(nc1SCC(=O)Nc1nccs1)CCCCC2 | -11 | 3 | -3% | 6.9 | 1.3%[38.3 µM] | u | 0.2
CC(C)N(C(=O)[C@H]1C[C@H](CC(=O)NCC23CC4CC(CC(C4)C2)C3)C(=O)N2CCc3c([nH]c4cc(CCC(=O)N(C)C)ccc34)[C@]12C)C(C)C | x | 27 | x | x | 5.8% | -4.9% | 2.7
O=C(CSc1ccc2nnc(-c3cccnc3)n2n1)Nc1cccc(F)c1 | -1 | 4 | 17% | x | 2.1% | -7.3% | -0.8
COc1ccccc1CC(=O)Nc1cc(Cl)ccc1O | 5 | -5 | 4% | 3.3 | 10%[38.3 µM] | 2.4% | -0.2
COc1ccc2cc(C(=O)COC(=O)COc3ccc4c(C)cc(=O)oc4c3)ccc2c1 | 1 | -8 | -6% | 3.8 | -2.6% | u | -0.2
CCCCNC(=O)COC(=O)c1ccc(N(C)C)cc1 | -7 | 4 | 4% | 3.4 | -0.1% | x | 0.5
CC1CCC(NC(=O)c2ccc(/C=C3\Oc4ccccc4N(C)C3=O)cc2)CC1 (configuration not stated) | -5 | x | -2% | 4.6 | x | x | x
CC(C)N=C(NS(=O)(=O)c1ccc(Br)cc1)c1ccc(Cl)cc1 | -4 | -7 | 15% | 6.9 | 1.5% | -1.3% | 0.7
COC(=O)CCN(C(=O)c1c(C)oc2ncnc(N3CCOCC3)c12)c1ccccc1 | x | -5 | x | x | 6.9% | 1.2% | 0.1
CCOC(=O)C(C)Sc1nnc(-c2ccccc2O)n1-c1ccc(C)cc1 (configuration not stated) | -15 | -14 | -12% | 0.1 | -1.6% | -5.4% | 1.3
Cc1cn([C@H]2C[C@H](O)[C@@H](/C=C/C(=O)NCCCc3ccccc3)O2)c(=O)[nH]c1=O | x | x | x | x | -0.5% | -2.3% | -0.1
CCOc1c(C)cnc2c1c(=O)n(Cc1cccc(Cl)c1)c(=O)n2C | -14 | 13 | -10% | 5.7 | 4.3% | -14% | 0.4
CC(C)n1c(=O)n(CC(=O)NCC2CCCO2)c(=O)c2c3c(sc21)COC(C)(C)C3 (configuration not stated) | 13 | -12 | 12% | x | 2.1% | -0.7% | 0.0
Cc1c(C(=O)NCc2cccc([N+](=O)[O-])c2)sc(=O)n1Cc1ccc(C(C)C)cc1 | x | x | x | x | 0.7% | -5.5% | -0.3
Cc1ccc(N(C)C(=O)CN(C)S(=O)(=O)c2ccc3c(c2)n(C)c(=O)c(=O)n3C)cc1 | 18 | -4 | 3% | -3.0 | 0.3% | 0.4% | 1.1
O=C(O)CCCCCNc1ncnc2ccc(Br)cc12 | -6 | 12 | 25% | 4.9 | 3.4% | x | 1.9
O=C1Nc2ccc([N+](=O)[O-])cc2C1(O)N1CCCCC1 (configuration not stated) | 8 | 13 | 18% | 2.1 | 9.7%[38.3 µM] | -1.7% | -0.7

7 of these compounds in a different format:
| compound | TRPV1 potentiator | TRPML1 blocker | Sfp inh | Menin-MLL FL inh | PINK1 modulator | ClpP mod | TRPML1 ag |
| --- | --- | --- | --- | --- | --- | --- | --- |
| Fc1ccc(Nc2nc(NCc3ccco3)nc3nccnc23)cc1 | x | x | x | x | 4.8% | -0.5% | -0.3 |
| COc1ccccc1CC(=O)Nc1cc(Cl)ccc1O | 5 | -5 | 4% | 3.3 | 10%[38.3 µM] | 2.4% | -0.2 |
| N#Cc1cc2c(nc1SCC(=O)Nc1nccs1)CCCCC2 | -11 | 3 | -3% | 6.9 | 1.3%[38.3 µM] | u | 0.2 |
| O=C(O)CCCCCNc1ncnc2ccc(Br)cc12 | -6 | 12 | 25% | 4.9 | 3.4% | x | 1.9 |
| CCOC(=O)c1c(-c2ccc(OC)cc2)csc1/N=C/C1C(=O)CCCC1=O | -14 | 2 | -35% | u | u | x | 9.4 |
| Cn1c(=O)n(Cc2ccco2)c(=N)c2c3c(sc21)CCC3 | -5 | -23 | -11% | 1.2 | 1.9%[38.3 µM] | -0.5% | 1.2 |
| O=C1Nc2ccc([N+](=O)[O-])cc2C1(O)N1CCCCC1 (configuration not stated) | 8 | 13 | 18% | 2.1 | 9.7%[38.3 µM] | -1.7% | -0.7 |

Remaining list, next part:
SMILES | TRPV1 potentiator | TRPML1 blocker | Sfp inh | Menin-MLL FL inh | PINK1 modulator | ClpP mod | TRPML1 ag
CCOc1ccc(C(=O)C(C)OC(=O)C2CCN(c3ccc(C(F)(F)F)cn3)CC2)cc1 (configuration not stated) | -1 | 5 | x | x | 0.2% | -2.8% | 9.5
CN1/C(=C\C(=O)CSc2nnc(N)s2)C(C)(C)c2ccccc21 | -21 | -8 | 7% | 11 | -0.4% | x | -0.5
Cc1ccc(CS(=O)Cc2ccc(C(=O)N3CCN(c4ccc(F)cc4)CC3)o2)cc1 (configuration not stated) | -1 | 10 | 7% | 1.2 | 0.1% | -1.1% | -0.7
CCOC(=O)C1CCN(c2c(N3CCN(c4ccccc4OC)CC3)c(=O)c2=O)CC1 | -9 | -8 | 8% | 0.2 | -0.4% | -1.1% | -0.7
CN(CC(=O)N/N=C/c1ccc(F)cc1)S(=O)(=O)c1ccccc1 | x | 33 | x | x | -0.2% | -2.1% | -0.8

Compound activity as filed in PubChem.
